quorum sensing: Vibrio cholerae quorum sensing activators, luminescence (AID 686977); V. cholerae quorum sensing reporter, luminescence, 6 h; higher luminescence means a stronger effect; most inactives read 0; one-dose luminescence at 50 µM unless noted; EC50 in µM for titrated hits; 9,400 tested, under 10 active;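 active = light above mean plus 3 SD and confirmed in a dose series; inconclusive = above that limit without a clear retest; inactive = below it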;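 also: raw light counts without normalisation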
Active calls of the source: *; ? = inconclusive; [ ] = another dose, or the depositor's remark.

SMILES | quorum sensing
COc1ccc(S(=O)(=O)Nc2ccc3c(c2)OCCO3)cc1Cl | 40
Cc1cc(C)n2nc(S(=O)(=O)NCCc3ccccc3)nc2n1 | 40
CCN(CC)CCN=Cc1c(O)n(C2CCCCCC2)c(=O)[nH]c1=O | 40
O=C(CCS(=O)NCc1ccccc1)NCc1ccccc1 (stereo unspecified) | 0
CCN(CCCc1ccccc1)CCCc1ccccc1 | 40[10 µg/mL]
Cc1csc(NC(=O)c2cc(C)oc2C)n1 | 0
C=C(C)Cn1c(SCC(=O)O)nc2c1c(=O)[nH]c(=O)n2C | 0
CCOC(=O)c1c(C)n(C)c2ccc(OCC(N)=O)cc12 | 0
CC(=O)Nc1cc2c(cc1NC(=O)c1cnccn1)OCCO2 | 0
O=C(CSc1nnc(-c2ccco2)o1)c1ccccc1 | 40
COc1ccc(C(=O)N2CCC(N3CCN(c4ccccc4)CC3)CC2)cc1 | ?
O=C(CN1CCN(C2CCCCC2)CC1)c1ccc2cc[nH]c2c1 | 40
O=C(NCCCN1CCOCC1)c1ccc(CS(=O)(=O)c2c(Cl)cccc2Cl)o1 | 240
O=C(O)CCC(=O)Nc1ccc(F)cc1 | 40
COc1ccc(S(=O)(=O)N2CCN(c3cccc(C)c3C)CC2)cc1 | 0
CC(C)Sc1nc(N)c2c3c(sc2n1)CN(C)CC3 | 0
COc1ccc(C)cc1-n1nnnc1SCc1nc2ccccc2s1 | 40
COC(=O)C(CCSC)NC(=O)C(NC(=O)C1CCC(C)CC1)C(C)C (stereo unspecified) | 360
COc1ccccc1OCC(O)CO (stereo unspecified) | 0[10 µg/mL]
CCCNC(=O)c1ccc2c(c1)ncn2-c1ccccc1OC | 240
COc1cc(OC)cc(-n2nnnc2SCC(=O)Nc2nc3c(s2)CCCC3)c1 | 0
CC(C)OCC(O)CN1CCN(CC(O)COc2ccc3c(c2)OCO3)CC1 (stereo unspecified) | 0
O=C(NCC1CCCO1)c1c(O)c2ccccc2[nH]c1=O (stereo unspecified) | 0
COC(=O)c1cc(Br)c(=O)n(CCc2ccc(F)cc2)c1 | 0
CCc1ccc(NC(=O)Nc2ccc3c(c2)N(C)C(=O)CS3)cc1 | 0
COc1ccc(-n2c(Cc3cccn3C)nnc2SCC(=O)Nc2cccc(OC)c2)cc1 | 40
CC(C)NC(=O)c1cccc(Br)c1 | 40
CCN(CC)c1ccc(NC(=O)CN2C(=O)CC(C)(C)S(=O)(=O)c3ccccc32)c(C)c1 | 0
Cc1ccc(NC(=O)CSc2nnc(Cc3cccn3C)n2-c2ccc(F)cc2)cc1 | 0
CC(=O)c1sc(NC(=O)c2cc3c(C)nn(-c4ccccc4)c3s2)nc1C | 0
Cc1ccc2c(SCC(=O)NCc3ccco3)nc(-c3ccc(F)cc3)nc2c1 | 0
CCOC(=O)CC(=O)Nc1c(C)cc(C)cc1C | 0
Cc1cccc2cc(CN(CC3CCCO3)C(=O)NC3CCCCC3)c(=O)[nH]c12 (stereo unspecified) | 0
CCCC(=O)c1ccc(-c2ccccc2)cc1 | 0
COc1ccc(Br)cc1S(=O)(=O)N1CCOCC1 | 0
c1cn2c(NC3CCCC3)c(-c3ccc(N4CCOCC4)cc3)nc2cn1 | 0
CC1CCc2nn(CC(=O)NCCC3=CCCCC3)cc2C1 (stereo unspecified) | 0
CC(NCCC(c1ccccc1)c1ccccc1)c1ccccc1 (stereo unspecified) | ?
O=C(CN1C(=O)c2ccccc2C1=O)Nc1cccc2cccnc12 | 280
COc1ccc(N2CCN(C(=O)C(Cc3ccccc3)n3cccc3)CC2)cc1 (stereo unspecified) | 40

Shown tab-delimited: part of the list above
SMILES	quorum sensing
CC(C)OCC(O)CN1CCN(CC(O)COc2ccc3c(c2)OCO3)CC1 (stereo unspecified)	0
O=C(NCC1CCCO1)c1c(O)c2ccccc2[nH]c1=O (stereo unspecified)	0
COC(=O)c1cc(Br)c(=O)n(CCc2ccc(F)cc2)c1	0

Additional structures follow.
SMILES | quorum sensing
C=CCn1c(SCc2ccccc2)nc(O)cc1=O | 0
Cc1noc(/C=C/NCc2cccnc2)c1S(=O)(=O)N(C)CC(=O)N1CCc2ccccc21 | 0
CCN1CCN(C(=O)N[C@@H](C(=O)N[C@@H]2C(=O)N3[C@@H]2SC(C)(C)[C@@H]3C(=O)O)c2ccccc2)C(=O)C1=O | 40[10 µg/mL]
CS(=O)(=O)N(CC(=O)N1CCCCCC1)c1ccccc1 | 0
CCn1cc(SCC(=O)N2CCc3ccccc32)c2ccccc21 | ?
CC(C)NCCOc1cccc(Br)c1 | 40
CCSc1nnc(CCNC(=O)OC(C)(C)C)o1 | 280
COc1cc(NC(=O)C2CCCN(S(=O)(=O)c3ccc4c(c3)oc(=O)n4C)C2)cc(OC)c1 (stereo unspecified) | 40
O=C(CSc1nnc(CNc2ccccc2)o1)N1CCc2ccccc21 | 40
COc1cc(NS(=O)(=O)c2ccc(N)cc2)ncn1 | 0[10 µg/mL]
CN(Cc1ccco1)C(=O)Cn1c(=O)oc2cc(S(=O)(=O)NCc3ccccc3)ccc21 | 280
Nc1ccc(N=Nc2ccccc2)c(N)n1 | 0[10 µg/mL]
CCOC(=O)Cn1c(=O)oc2cc(S(=O)(=O)NCC3CCCO3)ccc21 (stereo unspecified) | 0
CC(=O)C(Sc1ccc2nnc(-c3ccc(F)cc3)n2n1)C(C)=O | 0
Oc1ccc(Br)cc1/C=N/n1cnc2ccccc21 | 0
CCOC(=O)N1CCC(NC(=O)Cn2ncc3c2-c2cc(C)ccc2OC3)CC1 | 0
CCn1cc(C(=O)NCc2cccnc2)c(=O)c2cc(F)c(N3CCN(C(=O)c4ccco4)CC3)cc21 | 0
COc1ccc2[nH]c(C)c(CCN(Cc3cccs3)C(=S)Nc3ccc(F)cc3)c2c1 | 0
O=C(Nc1nccs1)C1CCCN1S(=O)(=O)c1cccc2cccnc12 (stereo unspecified) | 0
COc1ccccc1NC(=O)Cn1cnc2c(oc3ccccc32)c1=O | 0

Reprinted from the part before: four entries, followed by the next part.
SMILES | quorum sensing
CCn1cc(C(=O)NCc2cccnc2)c(=O)c2cc(F)c(N3CCN(C(=O)c4ccco4)CC3)cc21 | 0
COc1ccc2[nH]c(C)c(CCN(Cc3cccs3)C(=S)Nc3ccc(F)cc3)c2c1 | 0
O=C(Nc1nccs1)C1CCCN1S(=O)(=O)c1cccc2cccnc12 (stereo unspecified) | 0
COc1ccccc1NC(=O)Cn1cnc2c(oc3ccccc32)c1=O | 0
Cc1ccc(NS(=O)(=O)c2ccc(NC(=O)C3CCCO3)cc2)cc1 (stereo unspecified) | 0
Cc1ccc(NCc2nnc(SCC(=O)N(Cc3ccccc3)C(C)(C)C)o2)c(C)c1 | 640
O=C(ON=C1CCN(S(=O)(=O)c2ccccc2)CC1)c1ccc(F)cc1 | 0
COc1cc(Nc2nc(SCC#N)nc3ccccc23)cc(OC)c1OC | 40
COc1ccc(CNC(=O)Cn2nc(Cc3cccnc3)c3ccccc3c2=O)cc1 | 0
COc1cccc(C2CC(=O)N3CN(c4ccccc4F)CSC3=C2C#N)c1 (stereo unspecified) | 0
COCCNC(=O)CCc1ccc(S(=O)(=O)Nc2ccc(C)cc2)cc1 | 0
CCCCOC(=O)c1ccc(Nc2ncnc3nc[nH]c23)cc1 | 280
Cn1c2c(c(=O)n(C)c1=O)C(NS(=O)(=O)c1ccc(Cl)cc1)(C(F)(F)F)C(=O)N2 (stereo unspecified) | 0
CCOC(=O)c1c(NC(=O)CSc2nnc(CNc3ccc(F)cc3)o2)sc(C(C)=O)c1C | 0
CCOC(=O)N1CCN(c2c(NCCN3CCN(Cc4ccccc4)CC3)c(=O)c2=O)CC1 | 40
CCN(CC)CCCN1CC(O)=C(c2nc3ccccc3s2)C1=N | 600
N#Cc1c(NCCN)nc(-c2ccccc2)c2c1CCCC2 | 0
CCOC(=O)c1[nH]c(CSc2nnnn2-c2ccccc2C)c(C(=O)OCC)c1C | 0
c1ccc(-n2ncc3c(NCCN4CCCCC4)ncnc32)cc1 | 0
COc1cc2[nH]c(=O)n(CCC(=O)N3CCc4ccccc4C3)c(=O)c2cc1OC | 40
CN1C(=O)c2cccc(NC(=O)C3CCCCC3)c2C1=O | 0
COCCNc1oc(-c2ccccc2Cl)nc1C#N | 0
Cc1ccc(C)c(CN2CCCN(C(=O)Cn3ncc4c3-c3ccccc3OC4)C2)c1 | 80
COc1ccc(Cl)cc1NC(=O)C1CCCN(c2cc(C)nc3ncnn23)C1 (stereo unspecified) | 0
CCOc1ccc(-n2nnc3c(=O)n(CC(=O)N4CCCc5ccccc54)cnc32)cc1 | 0
Cc1cc2cc(CCNC(=O)CC(C)C)c(=O)[nH]c2cc1C | 0
COc1ccc(NS(=O)(=O)c2ccc(N)cc2)nn1 | 0[10 µg/mL]
CCOC(=O)N1CCC(Nc2c(NCCCN(CC)Cc3ccccc3)c(=O)c2=O)CC1 | 0
CN(C)[C@@H]1CCCCC(OC2c3ccccc3CCc3ccccc32)C1 (stereo partly specified) | 40[10 µg/mL]
O=C(CN1CCOCC1)Nc1ccccc1C(=O)O | 0
COC(=O)COn1c(-n2nc(C)cc2C)nc2ccccc2c1=O | 0
c1coc(CNC2CCCCCCC2)c1 | 40
NS(=O)(=O)c1cc2c(cc1Cl)NC(CSCc1ccccc1)=NS2(=O)=O | 0[10 µg/mL]
CCOc1ccc(NC(=O)c2ccccc2NC(=O)CN(C)CC(=O)Nc2ccc(C)cc2)cc1 | 40
O=C(CSc1n[nH]c(-c2ccccc2)n1)c1ccccc1 | 40
COc1ccccc1CNc1cc(CSc2ccc(Cl)cc2)nc(C)n1 | 40
O=C(c1cc(-c2ccc(Cl)c(Cl)c2)on1)N1CCCCC1 | 0
CC1CN(C(=O)CN2C(=O)c3ccccc3S2(=O)=O)CC(C)O1 (stereo unspecified) | 40
COC(=O)c1ccc(NC(=O)CN2CCCC2)cc1 | 0
O=C(c1cnc2n(c1=O)CCS2)N1CCN(C(c2ccccc2)c2ccc(Cl)cc2)CC1 (stereo unspecified) | ?
CN1CCN(C2=Nc3ccccc3Oc3ccc(Cl)cc32)CC1 | 0[10 µg/mL]
CCCCn1c(CNC(=O)CC)nc2ccccc21 | 0
O=C(CCSc1ccccc1)N1CCOCC1 | 0
N#Cc1cc(-c2ccccc2)nnc1Sc1ccc(F)cc1 | 0
O=C(O)CCCC(=O)N1CCc2cc(S(=O)(=O)N3CCc4ccccc43)ccc21 | 0
CC1CCc2c(sc(N)c2C(=O)OC(C)C)C1 (stereo unspecified) | 0
CC(=O)N1CCc2cc(S(=O)(=O)CCC(=O)Nc3ccc4c(c3)OCCO4)ccc21 | 40
O=c1[nH]c(CSc2nnc(-c3cccnc3)n2C2CCCCC2)nc2ccccc12 | 0
CC(=O)SCC(Cc1ccccc1)C(=O)NCC(=O)OCc1ccccc1 (stereo unspecified) | 40[10 µg/mL]
C#CCN(C)[C@H](C)Cc1ccccc1 | 40[10 µg/mL]
O=C(c1ccccc1)n1nc(-c2ccccc2)nc1NCc1ccco1 | 40
CNC(=O)COC(=O)c1cccnc1SC | 0
Cc1noc(C)c1COc1ccc(C(=O)OCC(=O)NC23CC4CC(CC(C4)C2)C3)cc1 | 0
O=S(=O)(c1ccc(F)cc1)N1CCN(c2ncnc3c2cnn3-c2ccccc2)CC1 | 240
CCC(CC)C(=O)N=C1SC2CS(=O)(=O)CC2N1CCc1ccc(OC)cc1 (stereo unspecified) | 0
CC/C(=C(\c1ccccc1)c1ccc(OCCN(C)C)cc1)c1ccccc1 | 40[10 µg/mL]
N#Cc1c(NC(=O)CCN2C(=O)c3ccccc3C2=O)oc(-c2ccccc2)c1-c1ccccc1 | 0
CCOCCn1c(C(C)C)nc2ccccc21 | 0
Cc1c(C(=O)Oc2cccc3ccccc23)cnn1-c1ccccc1 | 0
COc1ccccc1NC(=O)CSc1nnc(C)n1CCc1ccccc1 | 0
N#CCC1c2ccccc2CCN1C(=O)Nc1cccc(C(F)(F)F)c1 (stereo unspecified) | ?
CCOC(=O)CN1NC2(CCCC(C)C2)NC1=S (stereo unspecified) | 40
Cc1sc2c(=O)n3c(nc2c1C(=O)NC1CCCCC1)CCCCC3 | 0
Cc1ccc(-n2nnnc2SCc2nnc(-c3ccccc3Br)o2)c(C)c1 | 0

In a second layout: entries from further up.
> O=C(c1ccccc1)n1nc(-c2ccccc2)nc1NCc1ccco1
  quorum sensing = 40
> CNC(=O)COC(=O)c1cccnc1SC
  quorum sensing = 0
> Cc1noc(C)c1COc1ccc(C(=O)OCC(=O)NC23CC4CC(CC(C4)C2)C3)cc1
  quorum sensing = 0
> O=S(=O)(c1ccc(F)cc1)N1CCN(c2ncnc3c2cnn3-c2ccccc2)CC1
  quorum sensing = 240

(further entries)
SMILES | quorum sensing
CCOc1ccc(C(=O)Nc2cc(C)on2)cc1OCC | 0
O=C(C1CC(c2ccc(F)cc2)=NO1)N1CCc2ccccc2C1 (stereo unspecified) | 40
CCOC(=O)N1CCN(C(c2ccc(C(C)C)cc2)c2sc3nc(C)nn3c2O)CC1 (stereo unspecified) | 80
CCc1nnc(NC(=O)CSc2nnc(-c3ccco3)n2C)s1 | 0
Cc1noc(C)c1C(=O)N1CC(C)OC(C)C1 (stereo unspecified) | ?
O=C(C1CCN(S(=O)(=O)c2ccc(Cl)cc2)CC1)N1CCOCC1 | 0
COc1ccc(CN2CCNC(=O)C2CC(=O)O)c(OC)c1 (stereo unspecified) | 0
CC(C)COC(=O)n1c(=O)oc2cc(S(=O)(=O)N3CCCCC3)ccc21 | 0
Cc1cc2oc3c(c(=O)c2cc1C)C(c1ccc(F)cc1)N(CCCN1CCOCC1)C3=O (stereo unspecified) | 0
c1ccc(N2CCN(Cc3ccnc4ccccc34)CC2)cc1 | 0
O=C(NCCN1CCOCC1)c1ccc2ccccc2n1 | 40
CSC1=C(C#N)C(c2ccc(C(C)C)cc2)CC(=O)N1 (stereo unspecified) | 40

Taken from above:
`CC(C)COC(=O)n1c(=O)oc2cc(S(=O)(=O)N3CCCCC3)ccc21` in quorum sensing shows 0
`CSC1=C(C#N)C(c2ccc(C(C)C)cc2)CC(=O)N1` (stereo unspecified) in quorum sensing shows 40
`COc1ccc(CN2CCNC(=O)C2CC(=O)O)c(OC)c1` (stereo unspecified) in quorum sensing shows 0

Some of the compounds tested; the hit share may differ from the screen's.
